# miR-21 FLuc – raises the signal of a miR-21 reporter | HeLa miR-21 FLuc reporter, luciferase, 48 h | Potency, µM (top dose mostly 38.3 µM), inactives show at the highest dose reporter change, positive = more light | 340,000 tested, under 10 active | AID 2288; active = well fitted rising curve with a large enough effect; inconclusive = small, poorly fitted or top-dose-only effect; inactive = no such curve, though single readings can be large or run the other way;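 note: % of control where 0% means no effect; miR-21 action dims this reporter so a rising signal means less miR-21 action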
#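 Compounds were titrated across several concentrations (up to approximately 40 uM) and incubated 48 hours with HeLa miR-21-FLuc reporter cells (miR-21 target sequence downstream of FLuc, endogenous miR-21). Readout was firefly luciferase luminescence after lytic detection reagent.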
# Rango complex inh – Rango-importin beta binding inhibition | Rango CFP/YFP FRET sensor + importin beta, 45 min | actives 0.031% (n = 340,000) | Potency, µM (highest dose often 92.2 µM), without a hit: top-dose inhibition of complex formation; active = rising FRET ratio curve, often small or poorly fitted; inconclusive = mostly compound fluorescence or quenching in the first reads; inactive = flat curves in all reads;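 note: potency is the fitted concentration of half-maximal effect; 0% = DMSO wells and 100% = buffer wells lacking importin beta; nearly all actives have a fitted effect of over 15% in size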
#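 FRET biosensor Rango (snurportin 1 IBB between N-terminal EYFP and C-terminal Cerulean), 50 nM in PBS/1 mM DTT/0.02% Tween-20/0.1% BSA, preincubated 5 min RT with compound; 0.125 microM importin beta added, 45 min RT, CFP/YFP FRET ratio read.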
# GLA inh pH 4.5 – alpha-galactosidase A (human) inhibition, pH 4.5 | purified enzyme, 4-MU-alpha-Gal fluorescence, pH 4.5 | activity change, negative = inhibition, % at 105 µM | 230,000 tested, under 10 active; inconclusive = small, poorly fitted or top-dose-only inhibition, or a rising curve; inactive = flat fitted curve, though single readings scatter; no compound was filed as active;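 note: 0% = full activity with enzyme and -100% = basal without enzyme; dose as in the result columns while the protocol names 77 µM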
# Target sequence (P06280 whole entry, looked up): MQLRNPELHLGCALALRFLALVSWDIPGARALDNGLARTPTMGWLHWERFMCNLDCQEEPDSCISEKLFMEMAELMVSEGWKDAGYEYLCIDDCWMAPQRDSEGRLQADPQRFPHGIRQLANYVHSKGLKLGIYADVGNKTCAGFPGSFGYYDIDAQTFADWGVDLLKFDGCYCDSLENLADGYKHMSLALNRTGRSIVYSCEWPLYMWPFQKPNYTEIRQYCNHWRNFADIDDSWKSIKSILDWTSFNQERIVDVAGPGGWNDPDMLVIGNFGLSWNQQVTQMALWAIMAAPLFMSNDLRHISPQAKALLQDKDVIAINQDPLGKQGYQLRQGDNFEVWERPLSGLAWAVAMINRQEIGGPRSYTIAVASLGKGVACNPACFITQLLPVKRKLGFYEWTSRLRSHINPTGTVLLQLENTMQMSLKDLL
# Rango dissoc inh – prevents RanGTP from dissociating the Rango-importin beta complex; O95149+P62826; Biochemical FRET Rango-importin beta, RanGTP-induced dissociation; Potency, µM (highest dose often 46.1 µM), for inactives: at the top dose activity change, negative = inhibition; actives 0.071% (n = 340,000); active means falling FRET ratio curve, often poorly fitted, with flat reads before Ran was added; inconclusive means other falling curves, or compound fluorescence or quenching; inactive means flat or rising ratio curve;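 note: potency is the fitted concentration of half-maximal effect; % of control where 0% means no effect; nearly all actives have a fitted effect of over 45% in size; -100% = wells without RanGTP and RCC1; the record marks most hits as doubtful in a second field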
#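 Quantitative HTS using a FRET biosensor: 0.1 uM Rango, 0.25 uM importin beta, 0.6 uM Ran, 2 mM GTP, 0.2 uM RCC1 final, PBS with DTT, Tween-20 and BSA. Post-read taken 45 min after Ran addition.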
# An asterisk follows results filed as active; u = inconclusive; x = no result given; & = joins results of further samples; ! = not confirmed by another sample; [ ] = remark or other dose. A portion of the library, so the mix of outcomes need not match the whole.
SMILES,miR-21 FLuc,Rango complex inh,GLA inh pH 4.5,Rango dissoc inh
COc1ccc(C(CNC(=O)Cc2ccc(Cl)c(Cl)c2)N(C)C)cc1 (configuration not stated),0%,3.9%,0,0%
COc1ccc(S(=O)(=O)N2Cc3cnnn3-c3ccccc3C2C#N)cc1 (configuration not stated),x,3.8%,x,-4%
CN1CCN(CC(=O)Nc2ccc([N+](=O)[O-])cc2C(=O)c2ccccc2)CC1,0%,-1.4%,-2,-8%
CCCCSC1=NN1c1nc(N)nc(C)c1CC,-6%,0.5%,0,-2%
COc1ccc(C(=O)OC2CC3CCC(C2)[N+]3(C)[O-])cc1OC (configuration not stated),-1%,-0.2%,x,1%
Cc1ccccc1-n1c(/C=C/c2ccccn2)nc2ccccc2c1=O,28%,-0.6%,0,-13%
CC(=O)O[C@]1(c2ccccc2)CCN(C)[C@H]2CCCC[C@@H]21,1%,1.6%,1,5%
O=C(Cc1ccccc1)c1ccccn1,x,u,x,u
O=c1[nH]c(=S)n(CCC2=CCCCC2)c(O)c1C=NC1CCN(Cc2ccccc2)CC1,3%,-0.8%,-3,-1%
O=P(N1CCCCCC1)(N1CCCCCC1)N1CC1,x,2.5%,x,12%
OC1C2CN3CN(C2)CC1(c1ccccc1)C3 (configuration not stated),-19%,3.5%,3,-17%
CC12CCCCC1N(O)CN2O (configuration not stated),-2%,4.3%,5,3%
COc1ccc(-c2cc(=NCCC(=O)O)c3cc(C)ccc3o2)cc1,-77%,u,u,-22%
O=C1NC(=O)N(c2ccccc2F)C(=O)/C1=C/c1ccc(Sc2nc3ccccc3[nH]2)o1,1%,u,3,u
COc1nc(C)nc(NC(=O)NS(=O)(=O)c2ccccc2Cl)n1,x,0.2%,x,0%
O=c1c2ccccc2nc(CNCC2CCCO2)n1-c1ccc(F)cc1 (configuration not stated),-2%,-0.1%,3,-4%
CSc1nnc(OC(=O)N(C)C)n1-c1ccc(Cl)cc1,14%,-0.6%,4,2%
CSc1ccccc1NP1(=O)OCC(C)([N+](=O)[O-])CO1 (configuration not stated),x,1.3%,x,u
CCCCCCCCCCCCCCCC[n+]1ccccc1,x,65µM*!,-12,u
CN1CCc2cc3c(c4c2C1Cc1ccccc1-4)OCO3 (configuration not stated),20%,u,x,1%
O=C(COC(=O)Cc1ccccc1)Nc1cc(S(=O)(=O)N2CCOCC2)ccc1N1CCCC1,-6%,-2.1%,7,9%
C[C@H]1[C@H](OC(=O)CCC(=O)NCc2ccc(C(=O)O)cc2)O[C@@H]2O[C@@]3(C)CC[C@H]4[C@H](C)CC[C@@H]1C24OO3,u,3.7%,x,0%
C#CCN(C)[C@H](C)Cc1ccccc1,1%,-0.1%,3&-6,-4%
N#Cc1cc(F)c(N2CCNCC2)cc1Cl,-2%,1.6%,4,-16%
CC1CCSP(=O)(Oc2ccccc2)O1 (configuration not stated),12%,4.2%,-3,0%
CC(CC(C#N)(c1ccccc1)c1ccccc1)N(C)C (configuration not stated),x,-2.5%,x,0%
N#CCCn1cc(C(=O)Nc2ccc([N+](=O)[O-])cc2)c(-c2ccccc2)n1,11%,u,-3,-18%
N#CC1c2ccccc2-n2nncc2CN1C(=O)CCc1ccccc1 (configuration not stated),x,u,x,0%
CC(C)OS(C)(=O)=O,x,6.6%,x,-5%
COc1ccc2c(c1)c(C(=O)CN1CCC3(CC1)OCCO3)c(C)n2Cc1ccccc1,-12%,-0.3%,2,3%

# Full records from above. Order of screens: miR-21 FLuc	Rango complex inh	GLA inh pH 4.5	Rango dissoc inh
# C[C@H]1[C@H](OC(=O)CCC(=O)NCc2ccc(C(=O)O)cc2)O[C@@H]2O[C@@]3(C)CC[C@H]4[C@H](C)CC[C@@H]1C24OO3 in the list: u	3.7%	x	0%
# N#CCCn1cc(C(=O)Nc2ccc([N+](=O)[O-])cc2)c(-c2ccccc2)n1 in the list: 11%	u	-3	-18%
# N#Cc1cc(F)c(N2CCNCC2)cc1Cl in the list: -2%	1.6%	4	-16%

# (next part)
SMILES,miR-21 FLuc,Rango complex inh,GLA inh pH 4.5,Rango dissoc inh
CN=C1CN(O)C(c2ccccc2)=c2cc(Cl)ccc2=N1,x,-1.6%,x,-4%
CCC(C)C1N=C(c2ccccc2)c2cc(Cl)ccc2N(CC(=O)NCc2ccco2)C1=O (configuration not stated),-5%,0.2%,-1,0%
Cc1ccsc1C(=O)C1CCCN(Cc2ccn[nH]2)C1 (configuration not stated),-2%,-0.3%,5,-12%
Fc1ccccc1N1CCN(Cc2ccc3c(c2)OCO3)CC1,-3%,9.6%,-3,-10%
Cn1c(=O)n(C)c2cc([N+](=O)[O-])c(N3CCNCC3)cc21,-4%,0.1%,-20,8%
CCN(CC)P(=O)(c1n(CC)cc[n+]1CC)N(CC)CC,3%,0.2%,-3,1%
CN1CCN(c2ccc([N+](=O)[O-])c(N)c2)CC1,-8%,-4.2%,-21,3%
CC1CN2c3ccc([N+](=O)[O-])cc3CC3(C(=O)N(C)C(=O)N(C)C3=O)C2C(C)O1 (configuration not stated),-2%,5.5%,-9,7%
COc1ccc(CCNCc2c(OC)ccc3ccccc23)cc1,4%,-3.3%,x,u
COCCNC(=O)c1ccc(N2CC3CC(C2)c2cccc(=O)n2C3)c([N+](=O)[O-])c1 (configuration not stated),-3%,-0.6%,12,-12%
O=c1cccc2n1CC1CC2CN(CC(O)CN2CC3CC(C2)c2cccc(=O)n2C3)C1 (configuration not stated),0%,-0.4%,x,49%
CCCCCC(=O)N[C@@H](c1ccccc1)[C@@H](O)C(=O)O[C@H]1C[C@@]2(O)[C@@H](OC(=O)c3ccccc3)C3[C@](C)(C(=O)[C@H](O)C(=C1C)C2(C)C)[C@@H](OC1OCC(O)C(O)C1O)C[C@H]1OC[C@@]31OC(C)=O (some centres not stated),13%,0.2%,x,3%
O=c1[nH]c(=O)n(-c2ccc(F)cc2)c(O)c1/C=C1\C=Nc2ccccc21,1%,u,x,u
CC(C(=O)c1cn(C)c2ccccc12)c1ccccc1 (configuration not stated),-17%,0.1%,-7,1%
NC(=O)CSc1nnc([C@@H](N)Cc2c[nH]c3ccccc23)o1,-4%,-1.3%,-2,-14%
COC(=O)C1=C(c2cccc(C#N)c2)C[C@@H]2CC[C@H]1N2C(=O)NC(C)C,x,3.1%,x,27%
O=C(C(=O)N1CCOCC1)c1cn(Cc2ccccc2)c2ccccc12,2%,-0.5%,-8[21.1 µM],-13%
CC(C)(O)[C@H]1O[C@H]2CC[C@@]3(C)[C@@](O)(CC[C@H]4Cc5c([nH]c6ccccc56)[C@@]43C)C2=CC1=O,20%,3.2%,-5,-3%
CN1C(=O)C(=Cc2ccc(N3CCCCC3)o2)C(=O)N(C)C1=S,-22%,2.6%,6,-11%
Cc1cc(=O)oc2c(C)c(OCC(=O)N3CCN(Cc4ccc5c(c4)OCO5)CC3)ccc12,-1%,-3.1%,x,1%
O=C(c1ccc2c(c1)OCO2)N1CCC2(CC1)OCCO2,-1%,-4.9%,-3,-13%
CCOc1ccc(Cc2c(O)[nH]c(=O)[nH]c2=O)cc1,-2%,-2.5%,-2,-4%
O=C1N(c2nncs2)CCN1[N+](=O)[O-],-2%,-5.4%,-15,0%
CCn1cc(/C=c2/sc3n(c2=O)C2c4ccccc4OC(C)(N=3)C2C(=O)OC)c(C)n1 (configuration not stated),-3%,0.8%,u,-11%
CCOP(=O)(OCC)c1cccc(O)c1,1%,3.9%,2,23%
CCS(=O)(=O)NCc1nnc2n1-c1ccc(Cl)cc1C(c1ccccc1)=NC2,-3%,u,3,-20%
O=C(Nc1ccc(Cl)cc1C(=O)c1ccccc1)c1ccc(Br)o1,-1%,-3.5%,-8,0%
CN(C)P(=O)(CCl)Nc1ccccc1 (configuration not stated),-1%,-1.3%,0,0%
CC(=O)C1C2c3ccccc3OC1(C)N=c1s/c(=C/c3cn(C)nc3C)c(=O)n12 (configuration not stated),-10%,-0.2%,-3,3%
Cc1cc(C)c(-n2c(O)c(/C=N/N3CCCCC3c3cccnc3)c(=O)[nH]c2=O)c(C)c1 (configuration not stated),-2%,-0.8%,3,-5%
O=C(O)c1ccccc1SCC(=O)N1c2ccccc2Sc2ccccc21,-20%,-4.6%,5,u
Cc1ccccc1O,x,-2.9%,x,-1%
O=S1(=O)N(Cc2ccc(F)cc2)CCCN1Cc1ccccc1Cl,0%,0.3%,x,-5%
CCCC[n+]1cc(=N)o[n-]1,x,-0.5%,x,26%
CCc1nnc(NC(=O)CCc2nc(C3=CCN(C)CC3)no2)s1,-2%,0.0%,-5,-8%
C/C(=N\Nc1ccccc1)c1c(O)[nH]c(=O)[nH]c1=O,8%,0.4%,-7,10%
Cc1cc(NC(=O)COC(=O)c2c(C)nn(Cc3ccccc3Cl)c2C)no1,-5%,-2.5%,-3,-3%
COc1cc2c(cc1OC)C(C(=O)N1CCC3(CC1)OCCO3)C(c1ccccc1F)N(C)C2=O (configuration not stated),5%,5.2%,2,13%
O=c1[nH]c(=O)n(Cc2ccco2)c(O)c1C=NC1CCN(Cc2ccccc2)CC1,5%,-2.6%,-5,1%
CC(C)CCNC(=O)c1c(N)n(Cc2ccc3c(c2)OCO3)c2nc3ccccc3nc12,0%,u,6,u
CC1(C)C(c2ccccc2)=NC(c2cccnc2)=[N+]1[O-],-2%,2.1%,5,-2%
O=c1cccc2n1CC1CC2CN(C(c2ccccc2)c2sc3ncnn3c2O)C1 (configuration not stated),3%,3.3%,8,-3%
C/C(=N\NC(=S)Nc1ccccc1)c1c(O)n(C)c(=O)n(C)c1=O,-50%,3.0%,-6,-3%
CN1C(=O)N(C)C(=O)C2(Cc3cc([N+](=O)[O-])ccc3N(C)C2)C1=O,-2%,-3.0%,-7,10%
O=C(CNC(=O)OCc1ccccc1)Nc1ccc(Br)cc1C(=O)c1ccccc1,11%,1.8%,0,12%
Clc1cccc(Cl)c1Cl,x,3.0%,x,12%
CCOc1ccc(Nc2ncnc3c2nnn3Cc2ccccc2)cc1,-12%,-1.0%,x,42%
CC[C@H]1CN2CC[C@@]3(C(=O)Nc4ccccc43)[C@@H]2C[C@@H]1/C(=C\OC)C(=O)OC,x,-0.4%,x,-11%
CCOc1cc2c(cc1OCC)-n1cccc1C(c1c(O)cccc1OC)NC2 (configuration not stated),9%,-3.0%,x,12%
CCOC(=O)N1CCN(C(C)C(=O)c2c[nH]c3ccccc23)CC1 (configuration not stated),-7%,-0.2%,5,-5%
# Remaining list, next part
SMILES,miR-21 FLuc,Rango complex inh,GLA inh pH 4.5,Rango dissoc inh
CCOc1cc2c(cc1OCC)-n1cccc1C(c1cc(OC)ccc1F)NC2 (configuration not stated),0%,-0.7%,x,-5%
CC1=C(C)CC2(C(=O)NC(=S)NC2=O)C(C)C1 (configuration not stated),x,-0.4%,x,2%
O=c1[nH]c(O)c(N=Nc2cc(C(F)(F)F)ccc2Cl)c(=O)[nH]1,-1%,0.2%,0,-28%
CCc1c(C(=O)NN2C(=O)C3C4CCC(O4)C3C2=O)csc1C (configuration not stated),-30%,1.1%,-14,9%
CCOC(=O)c1cccc(-[n+]2c(-c3ccccc3)cc(-c3ccccc3)cc2-c2ccccc2)c1,x,-2.0%,x,-2%
COCCCn1c(=O)/c(=C\c2ccccc2OC(F)F)s/c1=C(/C#N)C(=O)NCCOC,1%,u,10,11%
O=Cc1cn(Cc2ccc(Br)cc2)c2ccccc12,18%,-0.4%,x,-4%
COc1cc(/C=C2\C(=O)NC(=O)N(c3ccc(C)cc3)C2=O)cc(OC)c1O,-3%,u,-3,-12%
CCC1(c2ccccc2)C(=O)NC(=S)NC1=O,x,-0.9%,x,2%
CCOc1cccc(CNCCc2c(C)[nH]c3ccc(OC(F)(F)F)cc23)c1O,u,1.4%,x,6%
CN(C)C(=O)Oc1ccc(Br)cc1C(=O)Nc1ccc(F)c(Cl)c1,11%,-1.2%,-7,-1%
CCOc1ccccc1-n1c(O)c(C=Nc2c(C)n(C)n(-c3ccccc3)c2=O)c(=O)[nH]c1=O,3%,-1.1%,-11,0%
CN(C)c1ccc(CCN2CCOCC2)cc1,x,5.0%,x,-2%
COc1ccc(CCNC(=O)COC(=O)Cc2ccccc2)cc1,-1%,0.5%,2,3%
COc1ccc(CCn2c(O)c(C=Nc3ccc(F)cc3)c(=O)[nH]c2=O)cc1OC,-2%,-5.5%,5,3%

# From PubChem
